Compound activity (PubChem BioAssay)
TRPML1 inh – blocks the human TRPML1 channel; Q9GZU1; TRPML1-inducible cells, Ca2+ dye fluorescence, FDSS; stronger effect = lower value; inhibition of EC80 agonist-evoked calcium signal; activity change, negative = inhibition, % (test concentration not listed); actives 0.02% (n = 390,000); AID 624415; in the data active means activity change below about -50%; inconclusive means about -30% to -50%; inactive means above about -30%;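 also: stimulus is agonist 54-4 at its EC80 concentration; % is scaled to controls: 0 for no effect and ±100 for the full control effect; compound concentration not given in the record; the text of the record puts the active cut at -80%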
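Tet-induced TRPML1-DL cells loaded with Ca8 no-wash calcium dye were read kinetically on FDSS. Compound addition was followed by EC80 agonist 54-4 (4 uM final); inhibition was read over 110 s.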
TRPV1 potentiator – human TRPV1 potentiation; Q8NER1; TRPV1-expressing cells, Fluo-8 calcium influx, capsaicin EC20 potentiation; host cell line not named in the record; control for the full effect not named in the record; actives 0.02% (n = 320,000); potentiation, % at 8.33 µM; active means potentiation above 80%; inconclusive means 30% to 80%; inactive means below 30%; also: 0% is about no effect
Target sequence (Q8NER1 whole entry, looked up): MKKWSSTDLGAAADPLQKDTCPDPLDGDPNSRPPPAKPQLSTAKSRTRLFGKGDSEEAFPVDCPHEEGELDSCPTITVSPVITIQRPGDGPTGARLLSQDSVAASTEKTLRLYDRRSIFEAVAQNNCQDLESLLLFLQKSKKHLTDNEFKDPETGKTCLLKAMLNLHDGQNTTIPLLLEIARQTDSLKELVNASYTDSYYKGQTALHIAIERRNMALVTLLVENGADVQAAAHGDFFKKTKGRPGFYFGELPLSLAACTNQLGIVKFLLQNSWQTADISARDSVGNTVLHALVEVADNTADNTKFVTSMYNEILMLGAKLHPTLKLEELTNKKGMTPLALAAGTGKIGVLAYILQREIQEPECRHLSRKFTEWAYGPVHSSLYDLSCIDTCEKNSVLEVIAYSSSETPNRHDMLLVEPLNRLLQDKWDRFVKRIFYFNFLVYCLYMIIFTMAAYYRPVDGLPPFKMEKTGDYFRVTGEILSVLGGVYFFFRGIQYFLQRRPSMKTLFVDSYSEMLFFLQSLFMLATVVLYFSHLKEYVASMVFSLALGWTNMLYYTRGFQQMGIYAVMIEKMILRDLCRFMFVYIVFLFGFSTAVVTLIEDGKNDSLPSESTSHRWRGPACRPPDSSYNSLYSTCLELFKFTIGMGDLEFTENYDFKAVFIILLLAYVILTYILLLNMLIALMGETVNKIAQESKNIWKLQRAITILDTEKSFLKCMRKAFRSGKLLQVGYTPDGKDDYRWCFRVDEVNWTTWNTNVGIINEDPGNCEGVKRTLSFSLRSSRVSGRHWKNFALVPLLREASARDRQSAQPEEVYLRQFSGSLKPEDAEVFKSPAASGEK
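TRPV1-expressing cells were cultured overnight at 35.5C and loaded with Fluo-8 calcium dye for 40 to 90 min at room temperature. After a 10 s baseline, compound was added and calcium influx was read kinetically for 3 min (ex 480/em 520 nm).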
Six1-Eya2 inh – blocks human Six1 binding to Eya2; actives 0.56% (n = 360,000); AlphaScreen GST-Six1/His-Eya2 binding, biochemical; stronger effect = lower value; control for the full effect not named in the record; Q15475+O00167; activity change, % (test concentration not listed); in the data active = activity change below about -65%; inconclusive = about -30% to -65%; inactive = above about -30%; also: % is scaled to controls: 0 for no effect and ±100 for the full control effect; compound concentration not given in the record
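GST-Six1 + His-Eya2 (5X stock: 250/500 nM); Tris pH 8.0, 300 mM NaCl, 0.05% BSA, 0.02% Tween 20; GSH donor/Ni acceptor beads; 1 h 37 °C dark; AlphaScreen readout.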
TRPML1 agonist – human mucolipin-1 channel agonism; activation, % (concentration not given with the values); TRPML1-expressing cells, Ca2+ dye fluorescence, FDSS; host cell line not named in the record; reference of the full effect not given here; actives 0.12% (n = 410,000); AID 624414; in the data active = activation above about 50%; inconclusive = about 30% to 50%; inactive = below about 30%; also: 0% is about no effect; the text of the record puts the active cut at 80%
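TRPML1-DL cells, Tet-induced overnight (~16 h, 37 degrees C), loaded 45-90 min at room temperature with Ca8 no-wash calcium dye plus quencher. FDSS fluorescence: 10 s baseline, compound pin-transfer, 110 s agonist read, then EC80 54-4 (4uM final) and 110 s antagonist read.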
CtBP-E1A inh – inhibitors of CtBP/E1A interaction; AlphaScreen GST-E1A/His-CtBP binding, 1536-well; stronger effect = lower value; control for the full effect not named in the record; actives 0.49% (n = 340,000); AID 651724; activity change, % (no concentration beside the values); in the data active means activity change below about -65%; inconclusive means about -30% to -65%; inactive means above about -30%; also: % is scaled to controls: 0 for no effect and ±100 for the full control effect; compound concentration not given in the record
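Homogeneous bead-based format: GST-tagged E1A captured on glutathione donor beads, His-tagged CtBP on nickel acceptor beads; compounds precede bead addition by 2 h at 37 °C.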
D2 PAM – human D2 receptor positive allosteric modulation. DiscoveRx D2 beta-arrestin cells, luminescence, 90 min; 100% = 57 uM dopamine signal. potentiation, % (test concentration not listed). actives 0.23% (n = 360,000); active = potentiation of 50% or more; inconclusive = 30% to 50%; inactive = 30% or less;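 also: compound concentration not given in the record; tested on top of an EC20 dose of dopamine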
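D2 cells co-treated with compound plus 50 nM dopamine (EC20) for 90 min at 37 deg C to detect potentiation. Beta-arrestin recruitment was read as enzyme-fragment luminescence after 1 h at ambient temperature. Full response was set by 57 uM dopamine.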
Starred values were filed as active, the others as inactive; ? = inconclusive; . = no result given.

SMILES	TRPML1 inh	TRPV1 potentiator	Six1-Eya2 inh	TRPML1 agonist	CtBP-E1A inh	D2 PAM
COc1ccc(N2CCN(CCNC(=O)Nc3ccc(C)cc3Cl)CC2)cc1	-18.6	23.3	-0.7	1.2	-1.5	-13.8
CN1CCSc2ccc(C(=O)Nc3ccc(Cl)cc3)cc21	-0.3	6.8	6.8	-0.1	7.7	-14.4
Cc1ccc(CN2C(=O)CSc3ccc(C(=O)NC4CC4)cc32)cc1	8.3	-6.5	-2.3	0.1	0.0	-1.2
Cc1noc(C(=O)NCc2ccco2)c1Cl	-15.3	3.8	-0.2	-0.4	1.5	-5.6
COC(=O)C1=C(O)CSC1=Nc1ccccc1	-13.7	24.9	4.0	8.2	-3.8	-39.0
O=C1/C(=C/c2ccc([N+](=O)[O-])cc2)CCC1C1CCCC1 (stereo not drawn)	58.8	1.3	-14.6	1.4	0.0	-4.4
Cc1c(C(=O)NNS(=O)(=O)c2ccccc2Cl)sc(=S)n1C	28.7	-7.2	-1.3	0.1	7.1	-4.0
O=c1ncn(-c2cccc(F)c2)c2ncccc12	2.3	-27.5	0.5	-0.6	-2.4	-8.0
CCCc1cc(CN2CCOCC2)c(O)c(CN2CCOCC2)c1O	3.8	.	0.0	-0.1	22.3	-10.8
O=c1ccnc2n1COCS2	6.6	5.5	3.5	-0.5	.	-17.5
CC(CC(=O)c1ccc(F)cc1)N1CCN(c2ccccc2)CC1 (stereo not drawn)	-14.7	.	-3.3	1.5	10.9	-22.9
OC(COc1ccc2c(c1)CCC2)Cn1cnc2ccccc21 (stereo not drawn)	-9.1	-4.3	-9.5	1.7	-7.0	-9.6
N/C(=N\OC(=O)c1ccc(=O)n(Cc2ccccc2)c1)c1ccccn1	-6.3	8.4	-2.1	-1.0	2.1	22.1
O=C(C/C=N\OCc1ccc([N+](=O)[O-])cc1)Nc1ccc(Cl)cc1	10.7	-18.7	1.4	0.0	2.1	-4.8
COc1ccc(NC(=O)c2cnc3ccccn3c2=O)c(OC)c1	-1.9	.	0.4	-0.3	-1.1	-6.3
CCCc1[nH]n(-c2ccc(F)cc2)c(=O)c1C=Nc1ccc(C)cc1	15.5	-11.8	-0.9	4.6	0.3	-7.0
O=c1[nH]c(=S)[nH]c2nc(-c3ccccc3)cnc12	33.2	.	-22.1	7.4	-2.0	-5.2
O=C1c2ccccc2C(=O)N1CCC(O)C[N+](=O)[O-] (stereo not drawn)	1.8	-7.6	3.9	-0.4	1.1	-3.3
O=C(Nc1ncc([N+](=O)[O-])s1)C1CCN(S(=O)(=O)c2cnc[nH]2)CC1	12.8	?	16.5	0.3	8.4	-9.3
COc1cc(/C=N/Nc2ccc(C(=O)O)cc2)ccc1O	-11.8	3.9	-20.5	1.8	-13.4	3.5
OC(COc1ccc2ccccc2c1)CN1CCN(c2ccc(F)cc2)CC1 (stereo not drawn)	-4.0	1.1	-8.9	0.7	-1.9	3.7
Cc1ccc(C(=O)NC(=O)CSc2nncn2C)cc1	-3.4	-14.8	-2.2	-0.6	4.4	-6.2
O=C(Nc1ccc(S(=O)(=O)Nc2ccc(F)cc2)cc1)c1ccc(CN2CCOCC2)cc1	0.1	-9.8	6.0	4.7	2.0	2.2
COc1cc2cc(CN(CCN3CCOCC3)C(=O)Nc3ccc(F)cc3)c(=O)[nH]c2cc1OC	-16.2	1.4	-8.3	0.7	-10.6	-2.7
CCC1=Nc2cc(C(=O)NCCCN3CCN(C)CC3)ccc2Sc2ccccc21	-6.2	3.6	-3.0	0.0	-4.1	-15.9
CCc1ccc(C(=O)Nc2cc(S(=O)(=O)N3CCOCC3)ccc2N2CCOCC2)cc1	24.3	.	-2.9	1.9	0.5	0.1
Nc1nc(SCC(=O)Nc2ccc3c(c2)OCO3)n[nH]1	-15.0	-17.0	6.9	0.4	13.9	4.8
CN(C)CCCNC(=O)c1cc2c3ccccc3n(C)c2s1	-12.7	-1.4	3.2	-0.1	-2.4	-3.6
O=C(COc1ccccc1[N+](=O)[O-])Nc1ccccc1N1CCCC1	10.3	0.6	-26.1	0.1	-21.1	-6.0
COc1cc(NC(=O)CCCn2c(=S)[nH]c3ccccc3c2=O)cc(OC)c1OC	-0.5	-7.8	-28.4	0.3	12.7	-3.7
CCOc1ccc(NC(=O)CN(C)C(=O)c2cc([N+](=O)[O-])ccc2Sc2ccccc2)cc1OCC	17.0	.	-29.4	1.6	-1.2	-3.8
CCC(Sc1nc(N)c(NC(=O)c2ccco2)c(=O)[nH]1)C(=O)O (stereo not drawn)	-3.4	-0.2	5.1	-0.3	5.7	1.5
Cc1ccc(C(C(=O)NCc2ccco2)N(C(=O)CNC(=O)c2cccs2)c2ccc(C)cc2)cc1 (stereo not drawn)	3.4	.	1.8	2.4	-2.2	-11.6
CCCOc1cccn2c(N(C)C(=O)c3ccccc3F)c(CC)nc12	.	.	0.1	-0.6	0.8	-3.2
CCCCN(C(=O)C(C)Oc1ccc(Br)cc1)c1c(N)n(CC(C)C)c(=O)[nH]c1=O (stereo not drawn)	5.3	3.2	9.8	0.0	-5.8	4.5
CCOc1ccc(-n2ccc(=O)c(C(=O)Nc3ccc(S(=O)(=O)Nc4nccs4)cc3)n2)cc1	13.4	10.1	-2.9	-0.2	-20.9	-19.2
CCC(C)NC(=S)Nc1ccc2nc(N3CCOCC3)cc(C)c2c1 (stereo not drawn)	16.2	27.8	-6.5	-0.9	.	-6.0
CN(CC(=O)Nc1ccc(F)cc1)C(=O)c1cccc(S(=O)(=O)N2CCN(c3ccccc3)CC2)c1	40.2	3.8	-7.6	0.2	-6.6	2.5
C1=C(c2cc3ccccc3cn2)CCCC1	10.8	.	15.2	-0.4	15.8	-7.0
CC(=O)c1ccc(OCC(O)CN2CC(C)OC(C)C2)cc1 (stereo not drawn)	-16.2	-2.9	5.2	0.1	2.5	-1.9
O=C(Nc1ccc(C(F)(F)F)cc1-c1ccccc1)c1ccccc1	-16.7	4.5	0.7	1.3	1.6	-29.4
CC(C)(C)CC(C)(C)NCC(O)COCCOc1ccc(Br)cc1 (stereo not drawn)	21.2	-1.1	-0.5	3.2	-4.3	-17.4
COc1ccc(OC)c(/C=N\NC(=O)CSc2nnc(CCCc3ccc(OC)c(C)c3)o2)c1	2.8	16.5	-20.5	-0.8	-7.2	2.0
CC1(C)CC(=O)C(C=NCCN2CCN(C(=S)NC3CCCCC3)CC2)=C(O)C1	3.6	-6.6	8.0	0.3	-16.7	-10.9
Cc1ccccc1Nc1nc(N)nc(CSc2nc3ccccc3s2)n1	4.0	16.2	-5.2	1.2	5.7	7.7
Cc1cc(OC(=O)C(C)(C)C)c([N+](=O)[O-])c(=O)[nH]1	-4.9	-9.9	6.9	-0.5	9.1	-2.3
Cc1ccc([C@@H]2CC=C(C(=O)O)[C@H](c3ccc(Br)cc3)N2S(=O)(=O)c2ccccc2C)cc1	-7.6	.	-2.2	0.8	3.2	.
C/C(=N\O)C(C)/[N+]([O-])=C/c1nc(C)c(C)n1O (stereo not drawn)	4.2	.	?	-1.7	-21.4	-3.0
O=C(Nc1nnc(-c2ccc(Br)cc2)o1)c1cccc(N2C(=O)CCC2=O)c1	1.2	18.2	?	-1.2	-28.7	20.9
CCCc1nc2ccc(C)cn2c1Cc1ccccc1OC	.	.	-10.7	-0.6	-6.0	-13.0
O=C(Nc1ccc(N2CCN(C(=O)c3ccccc3)CC2)cc1)c1cc2ccccc2o1	23.5	18.3	-14.2	3.8	-4.9	10.4
CCCC(C)n1[nH]c(=O)c2c(C)cc(C)nc21 (stereo not drawn)	-29.6	-2.9	-1.1	-0.5	3.5	-10.2
Cc1nnc(SCC(=O)Nc2ccc(Cl)cn2)s1	-19.3	-4.5	7.9	1.0	-2.4	-5.9
Cc1ccc2c(c1)[nH]c1c(=O)n(CCCN3CCOCC3)cnc12	38.6	.	-3.7	0.0	10.4	-30.4
Cc1ccc(Cl)cc1N(C(=O)c1csnn1)C(C(=O)NC1CCCC1)c1ccco1 (stereo not drawn)	-1.2	-2.6	-1.9	-0.1	-2.1	-9.3
O=C(Nc1ccccc1)Nc1cc(Cl)cc(Cl)c1	67.5	-7.5	2.5	1.0	7.8	-14.2
CCN(CC)C(=O)Cn1cc(/C=C(\C#N)C(=O)N2CCN(c3ccccc3)CC2)c2ccccc21	15.7	2.9	-11.0	2.1	-0.2	-5.0
Cc1ccc(OCC(O)CNCc2ccccc2)cc1C (stereo not drawn)	25.5	5.3	8.4	-1.1	-2.0	-16.7
O=C(c1cccc(S(=O)(=O)N2CCc3ccccc3C2)c1)N1CCN(c2ccccc2)CC1	-16.8	-6.3	-12.3	1.3	-9.9	-1.9
O=C(COC(=O)CCC(=O)c1cccs1)Nc1ccccc1[N+](=O)[O-]	?	-0.5	-19.1	0.6	0.0	-1.1
Next part:
SMILES	TRPML1 inh	TRPV1 potentiator	Six1-Eya2 inh	TRPML1 agonist	CtBP-E1A inh	D2 PAM
Cc1cccc(NC(=S)NN(Cc2ccccc2)c2ccccc2)c1C	11.5	0.7	-3.1	-0.6	-6.2	-27.2
O=C(Nc1ccccc1C(=O)Nc1ccccn1)c1cc(F)c(F)cc1Cl	-8.5	-3.9	4.7	2.0	-4.8	-4.3
CCCCN(C(=O)CN1CCOCC1)c1c(N)n(CC(C)C)c(=O)[nH]c1=O	5.5	4.5	4.4	0.5	15.6	-16.0
CN(C(=O)c1ccccc1C(=O)OCC(=O)NCc1cccs1)C1CCCCC1	4.7	1.3	1.3	0.6	0.0	-5.2
CC(C)C[C@H](NC(=O)c1nc[nH]c1C(=O)N[C@@H](CC(C)C)C(=O)OC(C)(C)C)C(=O)OCc1ccccc1	-21.9	5.3	-3.9	1.9	3.9	-6.2
COc1ccc(C2=NCC(CSc3nnc(-c4ccc5c(c4)OCO5)o3)S2)cc1 (stereo not drawn)	-4.3	-10.1	-6.6	-0.5	-1.0	11.1
O=C1c2cccc3c([N+](=O)[O-])ccc(c23)C(=O)N1O	0.4	-2.4	-20.7	-0.2	.	4.0
Cc1ccccc1OC/C(O)=C(\C#N)c1nc2ccccc2[nH]1	-7.6	11.0	4.0	-0.3	10.3	-27.1
O=c1n(Cc2ccccc2Cl)nc2n1-c1ccccc1SC2	-1.4	5.7	12.6	-1.4	.	-13.5

Ordered by the number under TRPML1 inh (low to high): some entries from above
compound	TRPML1 inh	Six1-Eya2 inh	CtBP-E1A inh	D2 PAM
CC(C)C[C@H](NC(=O)c1nc[nH]c1C(=O)N[C@@H](CC(C)C)C(=O)OC(C)(C)C)C(=O)OCc1ccccc1	-21.9	-3.9	3.9	-6.2
O=C(Nc1ccccc1C(=O)Nc1ccccn1)c1cc(F)c(F)cc1Cl	-8.5	4.7	-4.8	-4.3
COc1ccc(C2=NCC(CSc3nnc(-c4ccc5c(c4)OCO5)o3)S2)cc1 (stereo not drawn)	-4.3	-6.6	-1.0	11.1

Whole records as entered above:
`CN(C(=O)c1ccccc1C(=O)OCC(=O)NCc1cccs1)C1CCCCC1` is listed as TRPML1 inh = 4.7; TRPV1 potentiator = 1.3; Six1-Eya2 inh = 1.3; TRPML1 agonist = 0.6; CtBP-E1A inh = 0.0; D2 PAM = -5.2
`O=c1n(Cc2ccccc2Cl)nc2n1-c1ccccc1SC2` is listed as TRPML1 inh = -1.4; TRPV1 potentiator = 5.7; Six1-Eya2 inh = 12.6; TRPML1 agonist = -1.4; CtBP-E1A inh = .; D2 PAM = -13.5
